Anaer choline gr: growth inhibitors of anaerobic choline-fed gram-negatives, minimal medium, absorbance. Gram-negative bacterium anaerobic choline minimal medium; active compounds read low; many inactives read as strong as hits in the columns shown. calls only. hit rate 0.2% among 55,000. AID 1963822, 2024;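 active means growth z-score on choline under -2 at 7 or 20 h with little or no fall on glycerol, limits in tiers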;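 further: stock transfer was 300 nL into about 50 µL; the organism is E. coli; final concentration not given here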
Anaer choline gr early: second read-out of Anaer choline gr, no call of its own (marks repeat the call); z-score; measured here: choline growth z-score, timepoint 1;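 score of optical density at 7 h as mean of two plates; lower means less growth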
Starred values were filed as active, the others as inactive; i = inactive; & = joins results of further samples. Not all compounds are listed, so the mix of outcomes need not match the whole.

smiles | Anaer choline gr | Anaer choline gr early
O=C(NCCCN1CCCC1=O)c1ccc(CN2C(=O)CCn3nc(-c4ccc(Cl)cc4)cc32)cc1 | i | 0.84
c1ccc(Cc2nn3c(-c4cccnc4)nnc3s2)cc1 | i | -0.88
COc1ccc(S(=O)(=O)c2c(C)cc(C)n(CC(=O)Nc3ccc(OC)c(OC)c3)c2=O)cc1 | i | -0.55
Cc1nnc2ccc(NS(=O)(=O)c3ccc(Br)cc3)nn12 | i | 0.28
Cc1nc2nc3c(c(Nc4ccc(Cl)cc4)n2n1)CCC3 | i | -0.2
C=CCNc1oc(-c2ccc(S(=O)(=O)N3CCOCC3)cc2)nc1C#N | i | 0.91
O=C(CN1C(=O)COc2ccccc21)N1CCN(c2ccc(-c3noc(C4CC4)n3)cc2)CC1 | i | -0.81
CCS(=O)(=O)N1CCCN(C(=O)C2CCC2)CC1 | i | 0.63
Cc1ccc2ccc3cc(C(=O)Nc4ccc5c(c4)OCCO5)nc3c2[nH]1 | i | 1.4
O=C(NCc1nc(-c2ccc3c(c2)ncn3C2CCCC2)no1)c1ccccc1 | i | -0.03
Cc1nn2c3c(cnc2c1-c1ccc(Cl)cc1)C(=O)CC(c1ccc(F)cc1)C3 (configuration not stated) | i | -0.54
CC(C)Cn1nc2ccc(S(=O)(=O)N3CCSCC3)cn2c1=O | i | -1.4
CCc1nc(SCc2noc(CCC(=O)Nc3cc(C)on3)n2)n[nH]1 | i | -1.6
COc1cccc(NC(=O)Nc2ccc3c(c2)N(C(=O)c2ccc(C)cc2)CC3)c1 | i | -0.95
O=S1(=O)C[C@H](N2CCOCC2)[C@@H](S(=O)(=O)c2cccs2)C1 | i | -1.9
Oc1ccc(Cl)cc1C1=NC2(CCNCC2)NC(c2ccccc2O)C1 (configuration not stated) | i | -2.1
CCOC(=O)c1c(C)[nH]c(C(=O)N2CCC(CC(=O)NCc3ccc(OC(C)C)cc3)CC2)c1C | i | 0.47
COc1ccc(C2CCCN2Cc2cc(OC)c(OC)c(OC)c2)cc1 (configuration not stated) | i | -0.17
Cc1sc2cc(C(=O)NCC3CC3)[nH]c2c1CN1CCCCC1 | i | 0.69
Cc1ccc(Cl)cc1NC(=O)c1nnn(-c2ccccc2)c1N | i | 0.62
NC(=O)c1sc(=S)n2c1[nH]c(=O)c1cc(Cl)ccc12 | i | -1.2
CC(C)(C)C1CCc2c(sc3nc(CCC(=O)N4CCCC4)[nH]c(=O)c23)C1 (configuration not stated) | i | 0.92
COc1ccc(OC)c(S(=O)(=O)Nc2ccc(Sc3c(C)c(C)nc4ncnn34)cc2)c1 | i | -1.2
Cc1ccccc1N1CCn2c1nc1c2c(=O)n(CC(=O)O)c(=O)n1C | i | 0.51
Cc1cccc(C(=O)N2CCN(c3cc(=O)n4nc(-c5ccccc5)sc4n3)CC2)c1 | i | -0.52
CCCc1noc(Cn2ccnc2)n1 | i | 0.87
CC1(C(=O)NC2CCCC2)CCC(=O)N1C1CCCC1 (configuration not stated) | i | 0.88
CCN1CCN(S(=O)(=O)c2ccc(-c3cnc(C4CCC4)o3)s2)CC1 | i | -0.66
CCOC(=O)c1sc(NC(=O)c2sc(C)nc2C)c(C(=O)OCC)c1C | i | 0.8
CCC(=O)N1CCN(C(=O)c2ccccc2)CC1 | i | 0.54
CCOc1ccc(NC(=O)C2CCCN(c3ncnc4c3oc3ccccc34)C2)cc1 (configuration not stated) | i | 0.8
CCOc1ccc(NC(=O)N(C)Cc2nc3cc(C(=O)NC(C)C)ccc3n2C)cc1 | i | -0.09
COc1ccc(S(=O)(=O)N2CC(=O)N(c3cccc(Cl)c3)C(C)(C(=O)NC3CCCCC3)C2)cc1 (configuration not stated) | i | -0.62
O=C(CCn1c(=O)sc2cc(S(=O)(=O)N3CCc4ccccc4C3)ccc21)N1CCCC1 | i | 0.28
COc1ccc2[nH]cc(CCNC(=O)c3cc(S(=O)(=O)N4CCSCC4)ccc3Cl)c2c1 | i | -0.33
CCOC(=O)c1c(NC(=O)c2cc(CC)on2)sc(C)c1C | i | -0.15
Cc1sc2ncn3c(=O)n(CC(=O)NC4CCCC4)nc3c2c1C | i | -1.9
Cc1cccc(CSc2nnc3c(S(=O)(=O)N4CCCC4)cccn23)c1 | i | 0.3
CN(C)c1ccc(-n2c(CCC(=O)O)ccc2-c2ccccc2)cc1 | i | 0.07
CCOc1ccc(N(CC)C(=O)Cc2c(C(=O)O)n(C)c3ccccc23)cc1 | i | -0.86
CCOc1ccc(-c2ccc(SCc3nc(-c4ccc(Cl)cc4)no3)nn2)cc1 | i | 0.22
COc1ccc(NC(=O)NC2COc3ccccc3C2)cc1 (configuration not stated) | i | -1.4
O=C(CN1c2ccc(F)cc2-c2ccccc2S1(=O)=O)Nc1c(F)cccc1F | i | -1.1
O=C(NC(c1ccc(F)cc1)c1nnc(-c2ccccc2)o1)c1cccc(Cl)c1 (configuration not stated) | i | 1.5
c1ccc(C(c2ccccc2)N2CCN(c3nn4nnnc4c4ccccc34)CC2)cc1 | i | -0.18
CCOc1c(N2CCCC2)c(=O)c1=O | i | -0.37
O=C(Cn1ccc2c(SCc3ccc(F)cc3)nccc21)NCCC1=CCCCC1 | i | 1.1
CCn1nnc2c(NC3CCCC3)ncnc21 | i | -0.94
c1cncc(-c2nnc3sc(-c4ccncc4)nn23)c1 | i | 0.67
COc1ccc2c(c1)c1nc(SCCOc3ccc(F)cc3)n(C)c(=O)c1n2C | i | -1.2

Further results:
smiles | Anaer choline gr | Anaer choline gr early
CC(C)CC(=O)N1CCC2(CC1)Nc1cc(F)ccc1-n1cccc12 | i | -0.67
COc1ccc2c(c1)C=C(C(=O)Nc1ccc(-n3cnnn3)cc1)C=CO2 | i | -0.87
Cc1nc(CCNC(=O)[C@H]2CSCN2S(=O)(=O)c2ccc(Cl)cc2)cs1 | i | 0.38
Cc1ccc(NC(=O)N2CCc3cc(S(=O)(=O)N4CCC(C)CC4)ccc32)cc1 | i | 0.27
CN1C(=O)CSc2ccc(NC(=O)Nc3ccc(Cl)cn3)cc21 | i | -0.06
O=C(NCc1ccc2c(c1)OCO2)c1cc2n(n1)CCCN(Cc1ccc(Cl)cc1)C2=O | i | 1.4
Cc1cc(Cl)ccc1NC(=O)c1cccn1-c1cccnc1 | i | -1.5
Cn1c(=O)c(C(=O)O)nc2ccccc21 | i | 0.77
Cc1cc2c(cc1C)N=C(c1ccccc1)CC(SCC(=O)Nc1ccc3c(c1)OCO3)=N2 | i | -0.25
CC(=O)NS(=O)(=O)c1ccc(N)cc1 | i | -1.1&0.78
Nc1nc2c(ncn2COC(CO)CO)c(=O)[nH]1 | i | 0.7&0.66&0.55
CN(C)C(CNC(=O)c1cc(=O)c2ccc(Br)cc2o1)c1ccc(C(C)(C)C)cc1 (configuration not stated) | i | -0.15
CCOc1ccc(NC(=O)N2CCCC(C)(C(=O)NCc3ccccc3)C2)cc1 (configuration not stated) | i | -0.61
COc1ccc(-c2nc(SCc3cc(=O)c4cc(F)ccc4[nH]3)n[nH]2)cc1 | i | 0.02
Cc1ccc2cccc(NC(=O)c3cccnc3)c2n1 | i | -0.88
Cc1ccc2c(c1)N(C(=O)CN1CCCN(Cc3ccccc3Cl)S1(=O)=O)CCO2 | i | 0.27
CCCN1CCN(C(=O)c2cc3c(=O)n(Cc4ccc(OC)cc4)ccc3nc2C)CC1 | i | -1
Cc1ccc(-c2nc3ccccc3c3nnc(SC(C)C(=O)NC4CC4)n23)cc1 (configuration not stated) | i | 0.28
CCN1CCN(C(=O)c2nc(-c3nn(-c4ccc(F)cc4)c(=O)n(CC)c3=O)no2)CC1 | i | 0.23
Cc1sc2cc(C(=O)N3CCC4(CC3)OCCO4)[nH]c2c1CN1CCOCC1 | i | -0.14
Cn1nnnc1SCCNCc1ccc(Cl)cc1Cl | i | -1.6
Cc1nc(-n2[nH]c(C)c(CC(=O)NC(C)C)c2=O)sc1C | i | -0.81
Cc1ccc(CNC(=O)C2(C)Cn3nc(C)cc3C(=O)N2c2ccc(F)cc2)cc1 (configuration not stated) | i | 0.43
CC1(C)C(=O)NCCN1C(=O)C1CCCC1 | i | 0.63
Nc1nc(N2CCC3(CC2)OCCO3)ncc1S(=O)(=O)c1ccccc1 | i | 0.8
Cc1cc(S(=O)(=O)Nc2ccc(N3CCCS3(=O)=O)cc2)ccc1F | i | 1.2
c1ccc(-c2nnc(CN3CCCC3)o2)cc1 | i | -0.92
CCOC(=O)c1ccc(NC(=O)Cn2nc(SCC)c(S(=O)(=O)c3ccc(C)cc3)c2N)cc1 | i | 0.75
CN(C)CCCSC(=N)N | i | -0.75&0.59
O=c1oc2ccccc2n1Cc1noc(-c2ccc3c(c2)OCO3)n1 | i | 1
CCc1ccc(-n2c(=O)c3cccnc3n2CC(=O)Nc2cc(F)ccc2F)cc1 | i | -0.43
CC(C)N1CCN(C(=O)C2CCN(c3cnc(N4CCSCC4)nc3)CC2)CC1 | i | 0.44
COc1cc(OC)cc(C(=O)N2CCC(N3CCN(Cc4ccc(F)cc4)C(=O)C3=O)CC2)c1 | i | -0.29
O=C(NCC1CCCO1)c1ccccc1-c1nc(-c2ccccc2)no1 (configuration not stated) | i | -1.6
COc1ccc(-n2nc(C(=O)Nc3cc(Cl)c(OC)cc3OC)c(=O)n(C)c2=O)cc1 | i | -0.48
Cc1ccc(-c2noc(-c3cccn4c(=O)c5ccccc5nc34)n2)cc1 | i | -0.03
CCOc1ccc(S(=O)(=O)N2CCCC2c2ccnn2CC)cc1 (configuration not stated) | i | -0.65
Cc1cc(C)cc(NC(=O)Nc2cn(C)c(=O)c3ccccc23)c1 | i | -0.3
CC1(C(=O)NC2CCCC2)Cn2c(ccc2-c2ccccc2)C(=O)N1Cc1ccc(F)cc1 (configuration not stated) | i | 0.91
CC(C)NC(=O)c1nn(C)c2c1CSc1ccccc1-2 | i | -0.03
CCOc1ccccc1C1CC(=O)Nc2c1c(C)nn2-c1ccc2nncn2n1 (configuration not stated) | i | 0.51
Cc1ccc2c(c1)OC(C)CN2C(=O)C1CCCO1 (configuration not stated) | i | 0.31
CCNCc1ccc2c(c1)n(C)c(=O)n2C | i | 1.1
O=C(CCN(CCN1CCCCC1)C(=O)c1ccc(F)c(Cl)c1)N1CCNCC1 | i | 0.54
Cc1sc(-c2noc(C3CC3)n2)cc1NC(=O)c1ccsc1 | i | 1.4
COc1ccc(NC(=O)CSc2nnc3c4c(C)c(C)sc4ncn23)cc1OC | i | 0.56
C=CCSc1ncc(Cl)c(C(=O)Nc2sc3c(c2C(=O)OC)CCC3)n1 | i | -0.89
CC(C)C(=O)N1CCC2(C1)C(=O)N(C)c1ccccc12 (configuration not stated) | i | -0.41
CCc1nc2ccccc2c(=O)n1Cc1noc(/C=C/c2ccccc2OC)n1 | i | 0.08
CCn1nccc1C1CCCN1C(=O)Nc1cc(Cl)c(OC)cc1OC (configuration not stated) | i | -0.33

Given with values under each structure: six of the compounds above
Each structure is followed by: Anaer choline gr	Anaer choline gr early
Cc1sc2cc(C(=O)NCC3CC3)[nH]c2c1CN1CCCCC1
  i	0.69
O=C(NCC1CCCO1)c1ccccc1-c1nc(-c2ccccc2)no1 (configuration not stated)
  i	-1.6
CCOc1ccc(NC(=O)C2CCCN(c3ncnc4c3oc3ccccc34)C2)cc1 (configuration not stated)
  i	0.8
C=CCSc1ncc(Cl)c(C(=O)Nc2sc3c(c2C(=O)OC)CCC3)n1
  i	-0.89
Nc1nc(N2CCC3(CC2)OCCO3)ncc1S(=O)(=O)c1ccccc1
  i	0.8
CCOc1ccc(S(=O)(=O)N2CCCC2c2ccnn2CC)cc1 (configuration not stated)
  i	-0.65

(further entries)
smiles | Anaer choline gr | Anaer choline gr early
CCCN[C@H]1CS(=O)(=O)C[C@@H]1S(=O)(=O)c1cccs1 | i | -1.8
CCCCCCCC/C=C\CCCCCCCC(=O)OCC(CO)OC(=O)CCCCCCC/C=C\CCCCCCCC (configuration not stated) | i | -0.14
Cc1nc(N2CCCC2)ncc1C(=O)N1CCCCC1 | i | -0.25
CCCn1nnc(NCc2ccc(-c3ccc(Br)cc3Br)o2)n1 | i | 0.71
Cc1nc(-c2ccc3c(c2)n(CC(=O)NC(C)(C)C)c(=O)n3C(C)C)no1 | i | 0.14
Cc1cccc(C)c1OCC(O)Cn1c(C2CC(=O)N(C(C)(C)C)C2)nc2ccccc21 (configuration not stated) | i | -1.3
CCn1nc(C)c(CCN(C)C(=O)Nc2cccc(Br)c2)c1C | i | 1
Cn1c(=O)n(CC(=O)N2CCCC2)c(=O)c2cc(S(=O)(=O)Nc3ccc(Cl)cn3)ccc21 | i | -0.65
CC(C)(C)NC(=O)CN1CCN(c2cc(C(=O)O)c3cc(NC(=O)C4CCC4)ccc3n2)CC1 | i | -0.36
CC(=O)Nc1ccccc1-c1nc2ccccc2n(CC(=O)c2ccccc2)c1=O | i | -0.09
O=C(NCc1cccs1)c1cc2n(n1)CCCC2 | i | 0.91
COc1cc(OC)cc(-c2nc(-c3cc4c(C)nn(-c5ccccc5)c4s3)no2)c1 | i | -0.15
CC(=O)Nc1ccc(NC(=O)C2=Cc3ccc(C)cc3OC=C2)cc1 | i | 2.8
CCOC(=O)c1ccccc1NC(=O)Cn1nc2c(Oc3ccccc3)nccn2c1=O | i | 0.24
Cn1nnc(NCc2ccc(Br)cc2)n1 | i | -1.7

Compound activity: PubChem, ICCB-Longwood Screening Facility, Harvard Medical School
